RecA splice inh = blocks M. tuberculosis RecA intein splicing; P9WHJ3; cell-free RecA intein splicing, fluorescence; inhibition, %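 (about 9 µM by stock and volumes)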; 290,000 compounds, 0.75% hits; AID 2221; in the data active = inhibition above about 30%; inconclusive = no clear call, values can overlap the other calls;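 also: 0% = vehicle wells and 100% = reference inhibitor control wells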
Target sequence (P9WHJ3 whole entry, looked up, canonical isoform): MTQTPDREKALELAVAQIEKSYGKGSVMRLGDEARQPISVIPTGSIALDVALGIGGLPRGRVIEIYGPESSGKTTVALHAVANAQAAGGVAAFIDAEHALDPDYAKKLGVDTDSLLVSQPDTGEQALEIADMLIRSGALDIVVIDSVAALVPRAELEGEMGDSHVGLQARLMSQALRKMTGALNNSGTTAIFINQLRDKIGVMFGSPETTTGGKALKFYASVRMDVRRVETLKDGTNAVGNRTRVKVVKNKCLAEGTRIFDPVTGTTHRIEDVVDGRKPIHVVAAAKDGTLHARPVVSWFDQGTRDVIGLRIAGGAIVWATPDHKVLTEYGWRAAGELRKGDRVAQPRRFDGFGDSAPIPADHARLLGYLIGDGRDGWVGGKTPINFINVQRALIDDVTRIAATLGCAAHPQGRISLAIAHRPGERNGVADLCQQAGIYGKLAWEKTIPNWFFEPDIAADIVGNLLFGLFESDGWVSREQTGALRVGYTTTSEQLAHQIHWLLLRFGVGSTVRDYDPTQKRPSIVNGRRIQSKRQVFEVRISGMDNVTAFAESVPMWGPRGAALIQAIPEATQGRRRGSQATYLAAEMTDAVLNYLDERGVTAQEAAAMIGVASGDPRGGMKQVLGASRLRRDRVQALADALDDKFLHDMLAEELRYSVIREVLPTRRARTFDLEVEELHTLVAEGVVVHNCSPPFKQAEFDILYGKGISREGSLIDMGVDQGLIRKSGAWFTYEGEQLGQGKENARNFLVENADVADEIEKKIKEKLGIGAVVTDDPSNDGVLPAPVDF
YopH inh = inhibitors of Yersinia enterocolitica YopH tyrosine phosphatase; inhibition, %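 (about 10 µM by stock and volumes)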; 140,000 compounds, 0.16% hits; fluorescence Ex485/Em525;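 active = inhibition of 50% or more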;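 also: controls were vehicle for no effect and minimum signal wells for full effect; inactives centre near -20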
Mtb betalactam = beta-lactam sensitization of Mtb H37Rv | M. tuberculosis H37Rv growth with meropenem, percent inhibition; hits of this screen are not shown here | inhibition, % at 25 µM | 330,000 compounds, 0.27% hits | AID 434955;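 active = about 74% or more and at least 40 points above the plate without the antibiotic, then above 30% in a dose series; inconclusive = first-round hits that could not be retested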;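 also: growth measured after seven days incubation then overnight dye step; 0% = bacteria only wells and 100% = bacteria with antibiotic; twin plates without the antibiotic show which effects depend on it; some results filed as inactive read as strong as hits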
Mtb growth = M. tuberculosis H37Rv growth inhibitors, H37Rv strain (AID 1626). M. tuberculosis H37Rv growth inhibition; higher % means a stronger effect. inhibition, % at 10 µM, or IC50 in µM where a hit was titrated. 220,000 compounds, 0.95% hits;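 active = confirmed in a dose series; inconclusive = inhibition above 80% but not taken into the dose series; inactive = below 80% or under 30% at every dose of the series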;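 also: bacteria incubated seven days before Alamar blue readout; 0% = bacteria only wells and 100% = bacteria with antibiotic wells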
Arbovirus anti = arbovirus infection inhibition; arbovirus infection cell-based antiviral screen; inhibition, % at 10 µM; 200,000 compounds, 0.37% hits; AID 1251;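 active = inhibition from about 30%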;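 also: bluetongue infection of BSR cells; cell survival read as ATP light after 72 h; 0% = infected wells without compound and 100% = uninfected wells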
Arbovirus anti repeat = recorded beside Arbovirus anti, whose call it bears; inhibition, %; measured here: 10K subset replicate screen; many hits read low in the repeat;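 first of two repeat runs on a subset; 0% = infected and 100% = uninfected wells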
Starred values were filed as active, the others as inactive; ? = inconclusive; / = no result given; & = joins results of further samples.

SMILES	RecA splice inh	YopH inh	Mtb betalactam	Mtb growth	Arbovirus anti	others
CCn1cc(C(=O)OCC(=O)N(C)Cc2ccccc2)c(=O)c2ccc(C)nc21	3.2	/	2	-1%	3
CCOC(=O)N1CCN(C(=O)COC(=O)c2cc(Cl)c(O)c(Cl)c2)CC1	0.1	/	-11	-3%	9
COc1ccc(NC(=O)c2ccco2)cc1NC(=O)c1cccs1	0.0	-7	15	7%	-4
Cc1csc(NC(=O)c2cc(C)nc3ccccc23)n1	-1.2	/	2	8%	7
Cc1ccc2[nH]c(=O)c(CN(C)C(=O)c3cccs3)cc2c1	0.6	/	1	0%	16
Cn1cc(CN2CCN(CC(C)(C)C)C(CCO)C2)c2ccccc21 (stereo not given)	0.5	/	3	/	/
Cn1nc(C(F)(F)F)c(CN2CC(C)(C)C2=O)c1N1CCOCC1	-2.8	/	1	-2%	1
CC(=O)c1cccc(NC(=O)NNC(=O)CCC(=O)Nc2ccc(C)c(C)c2)c1	-4.1	/	12	54%	-1
CCN(CC)c1ccc(S(=O)(=O)N2CCOCC2)cc1NC(=O)COC(=O)c1ccco1	1.6	/	4	/	/
CCn1c(Cc2ccc(OC)cc2)nnc1SCC(=O)NC1CCCCC1	-0.8	-43	-1	1%	-3
Nc1ncc(Br)cc1S(=O)(=O)NCCC(=O)NCCc1ccc(Cl)cc1	0.8	/	1	/	/
CCOc1ccc(CCNC(=O)CCn2ccc3cc(S(=O)(=O)N4CCCC4)ccc32)cc1	1.0	/	-1	/	/
COc1ccc(Cc2nnc(NS(=O)(=O)c3ccc(Cl)cc3)s2)cc1OC	1.7	/	-2	-5%	8
CC(C)(CO)N=C1NS(=O)(=O)c2cc([N+](=O)[O-])ccc21	-5.4	-21	5	-6%	-11
O=C(O)CCC1(CCC(=O)O)c2ccccc2-c2ccccc21	-0.9	/	-5	/	/
c1ccc(Nc2ccnc(Nc3ccccc3)n2)cc1	7.0	/	5	9%	/
CS(=O)(=O)N1CCC(C(=O)Nc2cc(Cl)cc(Cl)c2)CC1	-0.4	/	-6	0%	5
O=C(N/N=C/c1ccc(OCc2ccccc2)cc1)c1ccc(O)cc1	0.8	/	48	30%	-23
O=S(=O)(NCCc1csc(-c2ccccc2)n1)c1cccnc1	-0.8	/	-13	-3%	/
Cc1cccc(C)c1N=Cc1c(C(F)(F)F)[nH][nH]c1=O	-0.6	/	-1	-7%	5
CCOc1cccc2sc(Cl)nc12	3.6	/	0	-8%	0
Cc1ccccc1NC(=S)NNC(=O)c1ccoc1C	0.7	-35	-9	4%	2
COC(=O)C1=C(C(=O)OC)SC2(S1)C(C(=O)OC)=C(C(=O)OC)SC1=C2c2cc(C)ccc2NC1(C)C	-2.0	-12	94	39%	-3
COc1cnn(-c2cccc(Cl)c2)c(=O)c1Cl	3.7	/	-9	/	/
CCCOc1ccc(-c2nnn(CC(=O)N3CCCC(C)C3)n2)cc1 (stereo not given)	2.2	/	-1	-2%	/
O=C(CNC(c1ccccc1)c1ccccc1)NCc1ccccc1Cl	11	/	7	/	/
O=C(CSc1nc2ncccc2[nH]1)NCc1ccccc1	-0.2	-16	-3	-4%	1	Arbovirus anti repeat=-6
CS(=O)(=O)NCCCNc1ccc(C(F)(F)F)cc1[N+](=O)[O-]	-0.5	/	-7	11%	/
Cc1cc(C)c(CN2CCC(n3nccc3NC(=O)C3CCCC3)CC2)cc1C	-5.9	/	-4	/	/
Cc1cc(C(=O)N2CCc3ccccc3C2)n[nH]1	-0.5	/	-4	/	/

3 entries drawn at random from the list so far:
SMILES	RecA splice inh	YopH inh	Mtb betalactam	Mtb growth	Arbovirus anti	others
CC(=O)c1cccc(NC(=O)NNC(=O)CCC(=O)Nc2ccc(C)c(C)c2)c1	-4.1	/	12	54%	-1
O=S(=O)(NCCc1csc(-c2ccccc2)n1)c1cccnc1	-0.8	/	-13	-3%	/
CCn1cc(C(=O)OCC(=O)N(C)Cc2ccccc2)c(=O)c2ccc(C)nc21	3.2	/	2	-1%	3

Carrying on.
SMILES	RecA splice inh	YopH inh	Mtb betalactam	Mtb growth	Arbovirus anti	others
COc1ccc(NC(=O)N2CCCC(C(=O)Nc3ccccc3OC)C2)cc1 (stereo not given)	0.2	/	6	/	/
COc1cccc(NC(=O)CN(C)C(=O)CCCc2nc3ccccc3s2)c1	1.5	/	-4	/	/
Cc1cc(C(=O)Nc2nc3ccc(Cl)cc3s2)nn1C	-3.1	/	14	/	/
Cc1ccccc1NC(=O)CSc1nn2c(=O)c(C)nnc2s1	-1.3	/	-12	5%	4
Cc1ccccc1-c1noc(-c2ccc(Cl)cc2)n1	1.0	2	7	-7%	-7
O=S(=O)(CCc1nc2ccccc2o1)c1ccc(Cl)c(Cl)c1	-0.5	-42	-25	-13%	-3
Cc1ccc(NC2CCCN(C(=O)c3cn4cc(Cl)ccc4n3)C2)cc1C (stereo not given)	1.7	/	-5	/	/
O=S(=O)(Nc1cccc(S(=O)(=O)N2CCOCC2)c1)c1ccc2c(c1)OCCO2	10	/	-6	-8%	4
Cc1cc(/C=C2\C(=O)NC(=O)N(Cc3ccco3)C2=O)c(C)n1-c1ccc(O)cc1	0.8	/	1	2%	2
O=[N+]([O-])c1cc2c(cc1[N+](=O)[O-])OCCOCCOCCOCCO2	-1.2	/	6	-6%	14
CCOC(=O)C1CCN(CC(=O)Nc2c(C(=O)OC)[nH]c3cccc(C)c23)CC1	-0.5	-19	1	-1%	-4
CC(=O)c1sc(NC(=O)c2ccc(Cn3cc(Br)cn3)o2)nc1C	0.4	-9	-16	-9%	-8
COc1cccc(CN(C)C(=O)c2cc(S(=O)(=O)N3CCN(c4ccccc4)CC3)ccc2Cl)c1	8.4	/	-13	/	/
Cc1ccc(S(=O)(=O)Nc2cccc(C(=O)NCCCN3CCCC3=O)c2)cc1F	0.2	/	2	/	/
CSc1ncccc1C(=O)N1CCN(S(=O)(=O)c2ccc(C)cc2)CC1	6.5	/	-6	/	/
N#Cc1c(NC(=O)Cn2cnc3ccccc3c2=O)oc(-c2ccccc2)c1-c1ccccc1	8.4	-21	-1	10%	15
CC(=O)c1c(N(C)C)ccnc1C(F)(F)F	2.2	-23	2	-6%	6	Arbovirus anti repeat=0
Cc1nn(C(C)(C)C)c(N)c1-c1ccccc1	-3.4	-1	-6	5%	5
Cc1ccc(NC(=O)CNCCCN2CCOCC2)cc1S(=O)(=O)N1CCCCC1	-1.6	/	-11	-4%	/
CCOc1ccc(/C(O)=C2/C(=O)C(=O)N(CCOCCO)C2c2ccc(F)cc2)cc1 (stereo not given)	-1.2	-51	51	-11%	2
O=C(CN1C(=O)CCC1=O)NNc1ccc2ccccc2c1	1.3	/	72	?	-23
CCCC(=O)Nc1ccc(C(=O)n2ccc(C)n2)cc1	1.1	/	-1	4%	-4
CC(C)N1CCC(=NNC(=O)c2ccc(Br)o2)CC1	-1.3	-1	4	7%	3
CCc1ccc(OC(=O)c2cncc(Br)c2)cc1	2.9	/	6	/	/
CCCc1nc2ccccc2c(NC(=O)CN(CC)CC)c1CC	-2.2	/	-4	4%	3
CC(C)N1C(=O)S/C(=C/c2ccc(Sc3nc4ccccc4[nH]3)o2)C1=O	12	-12	0	27%	-19
Cc1ccsc1CN1CCN(c2ccccn2)CC1	-1.8	-31	3	-6%	0
CN(C)C(=Nc1ccccc1)P(=S)(N(C)C)N(C)C	-2.2	/	3	3%	5
Cc1c(F)cccc1NC(=O)CSCC(=O)Nc1ccccc1	-1.8	-15	-4	-2%	1
O=S(=O)(O)Oc1c[nH]c2ccccc12	75*	/	100	/	/
COc1ccc2[nH]c(=O)c(CN(C)C(=O)C3CCCCC3)cc2c1	-2.2	-50	-14	5%	4
O=C(c1cccn(Cc2ccc(C(F)(F)F)cc2)c1=O)N1CCOCC1	-1.4	/	-4	0%	0
O=C(Oc1nsnc1N1CCOCC1)N1CCOCC1	-1.0	-23	5	6%	3
Nc1ncc2[nH]cnc2n1	-1.9&-3.4	/	-4&4	/	/
O=C(c1ccc(F)cc1)N1CCN(c2cc(=O)[nH]nc2-c2ccccc2)CC1	0.7	-52	2	-11%	-1
CN(Cc1ccccc1)S(=O)(=O)c1ccc(S(=O)(=O)N2CCN(CCC#N)CC2)cc1	/	-23	/	/	-2	Arbovirus anti repeat=0
CC(=O)c1cc(CN2CCN(CC=C(C)C)C(CCO)C2)cs1 (stereo not given)	2.2	/	-6	4%	-2
Cc1cc(C)nc(N2CCC(C(=O)NCCc3ccccc3)CC2)n1	3.1	-16	-5	-7%	-9
Cc1cc(C)c2nc(SCC#N)cc(C)c2c1	5.5	-28	12	-2%	-10
CCCS(=O)(=O)Nc1c(C(=O)O)[nH]c2ccc(OC)cc12	4.1	/	-7	-3%	/
O=C1COc2ccc(C(=O)COC(=O)c3ccccc3[N+](=O)[O-])cc2N1	0.4	/	1	/	/
S=C(Nc1ccccc1)N1CCN(C(=S)Nc2ccccc2)CC1	-5.9	/	-10	-7%	-2
Cc1ccc(C)c2[nH]c(=O)c(CCNC(=O)CC(C)(C)C)cc12	-8.9	-39	-2	2%	12	Arbovirus anti repeat=1
CCn1c(SCC(=O)Nc2cc(C)on2)nnc1-c1cccc(C)c1	18	/	-16	/	/
O=C(c1ccccc1)N1CCN(C2CCCCC2)CC1	-5.9	-37	-14	0%	-3

No new results follow: entries from further up.
SMILES	RecA splice inh	YopH inh	Mtb betalactam	Mtb growth	Arbovirus anti	others
O=C(c1ccc(F)cc1)N1CCN(c2cc(=O)[nH]nc2-c2ccccc2)CC1	0.7	-52	2	-11%	-1
CN(Cc1ccccc1)S(=O)(=O)c1ccc(S(=O)(=O)N2CCN(CCC#N)CC2)cc1	/	-23	/	/	-2	Arbovirus anti repeat=0
CC(=O)c1cc(CN2CCN(CC=C(C)C)C(CCO)C2)cs1 (stereo not given)	2.2	/	-6	4%	-2
Cc1cc(C)nc(N2CCC(C(=O)NCCc3ccccc3)CC2)n1	3.1	-16	-5	-7%	-9
Cc1cc(C)c2nc(SCC#N)cc(C)c2c1	5.5	-28	12	-2%	-10
CCCS(=O)(=O)Nc1c(C(=O)O)[nH]c2ccc(OC)cc12	4.1	/	-7	-3%	/
O=C1COc2ccc(C(=O)COC(=O)c3ccccc3[N+](=O)[O-])cc2N1	0.4	/	1	/	/

Carrying on:
SMILES	RecA splice inh	YopH inh	Mtb betalactam	Mtb growth	Arbovirus anti	others
Cc1noc(C)c1COC(=O)CCCc1c[nH]c2ccccc12	3.8	-12	-3	/	0
O=C1c2ccc(-c3ccc4c(c3)C(=O)N(CCCO)C4=O)cc2C(=O)N1CCCO	1.5	/	-2	0%	/
Cc1ccc(NC(=O)c2cncc(Br)c2)c(O)c1	-3.5	/	-7	-1%	39*
Oc1ccc(C=Nc2ccccc2-c2nc3ccccc3[nH]2)cc1	-6.8	-19	1	3%	11
CN(C)c1ccc(CN(C(=O)/C=C/c2ccco2)C2CCS(=O)(=O)C2)cc1 (stereo not given)	/	/	-14	-11%	/
O=C(Nc1ccc(Cl)cc1)[C@@H]1[C@@H]2C(=O)N(c3ccc(Cl)cc3Cl)C(=O)[C@@H]2[C@H]2C=CC=NN21	1.3	-5	-13	-12%	6

Some of these compounds in order of molar mass, rising.
SMILES	RecA splice inh	YopH inh	Mtb betalactam	Mtb growth	Arbovirus anti	others
Cc1noc(C)c1COC(=O)CCCc1c[nH]c2ccccc12	3.8	-12	-3	/	0
CN(C)c1ccc(CN(C(=O)/C=C/c2ccco2)C2CCS(=O)(=O)C2)cc1 (stereo not given)	/	/	-14	-11%	/
O=C(Nc1ccc(Cl)cc1)[C@@H]1[C@@H]2C(=O)N(c3ccc(Cl)cc3Cl)C(=O)[C@@H]2[C@H]2C=CC=NN21	1.3	-5	-13	-12%	6

Compound activity from PubChem.

Only part of the results is shown, so the mix of outcomes need not match the whole.
